Screens from PubChem.
Bm FixLJ act – activators of Burkholderia fixLJ two-component system; 29,000 tested, 0.3% active; B. multivorans fixK-promoter GFP reporter, 18 h; stronger effect = higher value; z-score (concentration not given with the values);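 active = replicate mean overnight rise in green fluorescent reporter signal, 3 or more SD over negative controls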;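 note: score is relative to vehicle wells of the plate; 300 nL library stock went into each well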
Numbers without * were called inactive. A portion of the library, so the mix of outcomes need not match the whole.

mol,Bm FixLJ act
CCn1nc(C)c(NC(=O)CN2CCN(c3ccc(OC)nc3)CC2)c1C,1.14
CCc1cccc(C)c1Nc1c(-c2cccc(O)c2)nc2sccn12,0.96
CCCn1c(=O)n(-c2ccccc2Cl)c(=O)c2sc3ccccc3c21,-0.6
Cc1noc(-c2ccc(S(=O)(=O)N3CCC3c3ccc(F)cc3)o2)c1C (stereo not drawn),-0.2
O=C(Nc1ccc(C(F)(F)F)cc1)C1CCCN(S(=O)(=O)c2cccc3cccnc23)C1 (stereo not drawn),0.21
CCC(=O)N1CCc2cc(Br)cc(S(=O)(=O)CCC(=O)Nc3ccc(Cl)cc3)c21,0.35
Cc1ccccc1C(=O)Nc1cc2c(cc1N1CCCCC1)n(C)c(=O)n2C,-0.69
COc1ccc(-c2cc(C(=O)Nc3sc4c(c3C(N)=O)CCC(C)C4)no2)cc1 (stereo not drawn),1.56
Cc1ccc(S(=O)(=O)c2cnc(SC(C)C(=O)Nc3ccccc3)[nH]c2=O)cc1 (stereo not drawn),-0.6
COc1ccccc1NC(c1ccc(Cl)cc1)c1nnc(-c2cccc(F)c2)o1 (stereo not drawn),1.36
Cc1ccc(C(=O)c2cn(Cc3ccccc3)c3nc(C)ccc3c2=O)cc1,-0.73
Cc1ccc(N2C(=O)NC(NS(=O)(=O)c3ccc(Cl)cc3)(C(F)(F)F)C2=O)cc1C (stereo not drawn),-0.79
COc1cccc(CNC(=O)CCc2nc(-c3ccc(C)cc3)no2)c1,-0.03
COc1ccc(-c2[nH]c(-c3ccccc3)nc2SCC(=O)NC2CCCC2)cc1,-1
COc1cc(C(=O)N(C)C2C[C@H]3CC(=O)N(C)C[C@H]3C2)ccc1OC(C)C (stereo partly drawn),-0.97
COc1ccc(NC(=O)CCCS(=O)(=O)c2nc(-c3ccccc3OC)cc(C(F)(F)F)n2)c(OC)c1,-1.7
Cc1cccc(NC(=O)C2CCCN(S(=O)(=O)c3cccc4nonc34)C2)c1 (stereo not drawn),-1.15
COc1ccc(CNC(=O)c2ccc3c(c2)N(Cc2ccccc2)CCS3)cc1,1.21
CC(C)(C)NCC(O)c1ccccc1Cl (stereo not drawn),-0.83
Cc1ccc2nc(NCc3ccccc3Cl)c3nnnn3c2c1,-0.66
O=C1CCCCCN1CCC(=O)N(Cc1cccnc1)Cc1ccsc1,1.32
O=C(c1cccc(Cl)c1)n1nc(-c2ccco2)nc1NCc1cccs1,-2.31
C=CCSCC1Nc2cc(Cl)c(S(N)(=O)=O)cc2S(=O)(=O)N1 (stereo not drawn),-0.66
Cc1cccc(OCC(=O)N(Cc2ccc(C(C)(C)C)cc2)Cc2ccco2)c1,1.01
O=C(O)c1ccc(C2Nc3ccccc3-c3nnc(SCc4ccc(Cl)cc4)nc3O2)cc1 (stereo not drawn),-0.19
Cc1noc(CN(C)C(=O)C2OCC(=O)NC2c2ccccc2Cl)n1 (stereo not drawn),-1.6
CCn1cc(C(=O)NCCc2ccc(C)cc2)c(=O)c2cc(S(=O)(=O)N3CCc4ccccc4C3)ccc21,0.25
O=C(NC1CCCCCC1)C1c2ccccc2C(=O)N1Cc1ccc(F)cc1 (stereo not drawn),1.13
Cc1ccc2oc(-c3ccc(C)c(NC(=O)/C=C/c4ccc(Cl)cc4)c3)nc2c1,-0.67
O=C(Nc1ccc(Br)cc1F)c1cc2nc(-c3ccco3)cc(C(F)(F)Cl)n2n1,-1.47
COc1cccc(CNC(=O)CN2CCCN(Cc3ccccc3)S2(=O)=O)c1,-0.23
Cc1ccc(-c2c(C(=O)NCc3ccc(F)cc3)oc(=O)c3ccccc23)cc1,-0.27
O=C(O)Cn1nccc1C1CCCN(C(=O)c2cnc(C3CC3)[nH]c2=O)C1 (stereo not drawn),0.25
Cc1cc(-c2cc(S(=O)(=O)NCCN(C)S(C)(=O)=O)c(C)s2)n[nH]1,-0.42
CCOc1ccc(S(=O)(=O)N(CC(=O)Nc2ccc(OC)cc2OC)c2ccccc2)cc1,-0.4
CCN(CC)CCNC(=O)CSc1nc2nc(C)c(Cc3ccccc3)c(C)n2n1,-1.36
O=C(Cn1c(=O)nc(-c2ccccc2)c2ccccc21)Nc1ccc(Cl)cc1F,-1.28
CCOc1ccc(NC(=O)CSc2oc(-c3ccccc3)nc2S(=O)(=O)c2ccc(Cl)cc2)cc1,-1.68
Cc1cccc(-c2nc(CN3CCCC(C(=O)NCc4ccc(Cl)cc4)C3)c(C)o2)c1 (stereo not drawn),-1.76
COc1cccc(CNCCSc2nnnn2C)c1OCc1ccc(Cl)cc1Cl,-1.98
CCCn1c(CNC(=O)c2ccc(F)cc2)nc2ccccc21,0.24
Cc1ccc(C(=O)Nc2ccc3oc(-c4cc(Br)ccc4Cl)nc3c2)cc1,0.2
Cc1c(NC(=O)N2CCCN(C(=O)C3CCC3)CC2)cnn1C,1.02
Cc1ccc2oc(C(=O)N3CCC4(CCCN(CC5CC5)C4=O)C3)c(C)c2c1 (stereo not drawn),-0.08
O=C(Cn1c(=O)n(CC2CCCO2)c(=O)c2ccccc21)Nc1cccc(Cl)c1 (stereo not drawn),-1.74
COc1cccc(NC(=O)c2oc3ccccc3c2NC(=O)c2ccc(F)c(F)c2)c1,1.39
Oc1c(Cl)cc(Cl)c2cccnc12,0.2
O=C(C(O)c1cccc(Cl)c1)N1CCC(c2nccn2CC2CC2)CC1 (stereo not drawn),0.04
COc1ccc(CN2C(=O)N(c3ccc(C)cc3)C(=O)C2CC(=O)Nc2ccccc2)cc1OC (stereo not drawn),0.49
Cc1oc2c(c1C(=O)N1CCC(NS(C)(=O)=O)CC1)C(=O)CCC2,-1.22
NC[C@H]1O[C@H](OC2[C@@H](N)C[C@@H](N)[C@H](O[C@H]3O[C@H](CO)[C@@H](O)[C@H](N)[C@H]3O)[C@H]2O)[C@H](O)[C@@H](O)[C@@H]1O (stereo partly drawn),-0.67
Cc1ncnc(N2CCC(c3nnc(CN4CCCCC4)n3C)CC2)c1C,1.34
CCCOc1ccc(C(=O)Nc2cc3c(cc2N2CCCCC2)n(C)c(=O)n3C)cc1,-0.54
O=C(c1ccc(F)cc1)n1nc(-c2cccnc2)nc1NCc1ccccc1,-1.43
Cc1ccc(-c2nc3c(cnn3-c3ccccc3)c(=O)n2-c2ccc(Cl)cc2)cc1,-1.63
COc1cc(/C=C/c2nc(C#N)c(NC(C)c3ccccc3)o2)cc(OC)c1OC (stereo not drawn),-0.32
CC(C)n1ccnc1CN1CCC2(CC1)c1nc[nH]c1CCN2C(=O)C1CC1,-1.34
CSCCC(NS(=O)(=O)c1ccc2c(c1)oc(=O)n2C)C(=O)NCc1ccccc1 (stereo not drawn),-0.38
COc1ccc(-c2csc3nc(-c4ccc(C)cc4)oc(=O)c23)cc1OC,-1.98
Cc1ccc(OCc2nc(-c3ccc(C(=O)N4CCN(c5cccc(C(F)(F)F)c5)CC4)cc3)oc2C)cc1,-0.21

(further entries)
mol,Bm FixLJ act
CCc1ccc(C(=O)c2cn(CC(=O)Nc3ccc(OC)cc3)c3cc4c(cc3c2=O)OCO4)cc1,-1.23
COc1ccc(-c2nc(SCC(=O)NCC3CCCO3)c(-c3ccc(C)cc3)[nH]2)cc1OC (stereo not drawn),-1.04
Cc1cccc(-c2nnn3c2nc(NCCc2ccc(S(N)(=O)=O)cc2)c2ccccc23)c1,0.62
CCCN(CCO)C(=O)c1ccc(-c2cccc(C#N)c2)cc1,0.14
COc1ccc(NS(=O)(=O)c2ccc3c(c2)[C@H]2C=CC[C@H]2[C@@H](c2ccc(C(=O)O)cc2)N3)cc1,-0.44
CCOC(=O)c1c(C)n(-c2ccccc2)c2ccc(OC(=O)c3c(F)cccc3F)cc12,-0.09
O=C1Nc2ccccc2Oc2cc(Oc3ccccc3)ccc21,-3.13
Cc1ccccc1NC(=O)Cn1c(=O)n(Cc2ccc3c(c2)OCO3)c(=O)c2ccccc21,-1.06
Cc1ccc(C)c(Cn2cnc3ccccc3c2=O)c1,-0.76
CCc1ccc(C(=O)c2cn(CC(=O)Nc3ccc(OC)c(OC)c3)c3ccc(C)cc3c2=O)cc1,-0.52
COc1ccc(-n2cc(C(C)Nc3cc(C)nc4ccnn34)cn2)cc1 (stereo not drawn),-1.37
CCCN1C(=O)c2[nH]nc(-c3ccc(OC)cc3)c2C1c1ccccn1 (stereo not drawn),0.3
Cc1ccc2c(c1)C(c1ccccc1)N(C(=O)c1ccc(S(=O)(=O)N3CCCCC3)cc1)CC(=O)N2 (stereo not drawn),1.05
CNc1ncccc1C(=O)N1CCC(C(O)c2cccs2)CC1 (stereo not drawn),-1.14
Cc1nn(CC(=O)NCc2ccc(Cl)cc2)c(=O)c2cc3sccc3n12,-0.99
CN1CCC2CN(C(=O)c3ccccc3N3CCC(=O)NC3=O)CC2C1=O (stereo not drawn),-0.56
CCCCNC(=O)c1ccc2c(c1)N(Cc1ccc(F)cc1)C(=O)c1ccccc1S2=O (stereo not drawn),-1.32
CCCOC(=O)NCc1cc2n(n1)CCCN(S(C)(=O)=O)C2,-0.26
CCc1ccc(C2N=C(N)Nc3nc4ccccc4n32)cc1 (stereo not drawn),1.08
O=C(CCNS(=O)(=O)c1ccc(Br)s1)Nc1ccc(Br)cc1,-1.01
CCn1nc(C)c(C(=O)NCC2CCN(c3cnc4ccccc4n3)CC2)c1C,-0.33
CCOc1cc(C)c(Cl)cc1S(=O)(=O)N(C)CC1(CO)CCC1,-0.38
O=NN(CCCl)C(=O)NCCCl,0.21
O=C(NC1(C(F)(F)F)N=C(c2ccccc2)N(C2CCCCC2)C1=O)c1ccc(F)cc1 (stereo not drawn),-0.74
Cc1ccc2c(=O)cc(C(=O)Nc3ccc(S(=O)(=O)Nc4onc(C)c4C)cc3)oc2c1,-0.73
COc1ccc(CCNC(=O)c2cc(-c3ccccc3)nc3ccccc23)cc1OC,-2.67
Cn1c(=O)c2c(nc3n(-c4ccc(O)cc4)c(-c4ccc(Br)cc4)cn23)n(C)c1=O,-0.46
Cc1nc(C2CCCN(Cc3nc4ccccc4nc3C)C2)cc(=O)[nH]1 (stereo not drawn),-1.72
O=C(O)c1ccccc1C(=O)Nc1ccc(S(=O)(=O)Nc2nccs2)cc1,-1.11
CNc1nc2c(c(=O)n(C)c(=O)n2C)n1CC(O)COc1ccc(OC)cc1 (stereo not drawn),1.22

Other records follow.
canonical_smiles	Bm FixLJ act
CCCc1ccc(S(=O)(=O)N2CCC(c3nnc(-c4cccc(C)c4)o3)CC2)cc1	-1.28
COC(=O)c1cccc(Cn2nnc3sc4c(c3c2=O)CCC(C(C)(C)C)C4)c1 (stereo not drawn)	-1.1
CCn1ccc(CN(Cc2ccccc2)C2CCS(=O)(=O)C2)n1 (stereo not drawn)	-0.54
CCOc1ccc(NC(=O)CC2Nc3cccc4cccc(c34)NC2=O)cc1 (stereo not drawn)	-3.03
COCC(c1ccccn1)N(C)C(=O)c1c[nH]c(=O)c2ccccc12 (stereo not drawn)	0.45
Cc1ccc(-c2nc3cc(C(C)C)ccc3o2)cc1NC(=O)c1cccs1	-0.13
O=C(O)C(c1cccc(-c2ccccc2)c1)N1CCOC2(CCNCC2)C1 (stereo not drawn)	-0.23
CCc1cccc(NC(=O)C(CC(C)C)NS(=O)(=O)c2ccc3c(c2)oc(=O)n3C)c1 (stereo not drawn)	0.64
O=C(c1ccc2c(c1)N(Cc1ccccc1F)C(=O)c1ccccc1S2(=O)=O)N1CCN(c2ccccn2)CC1	-1.25
COc1ccc(OCC(=O)N2CCN(C(=O)c3cc(OC)c(OC)c(OC)c3)CC2)cc1	-1.11
CC(C)c1ccc2occ(CC(=O)Nc3cccc(C(F)(F)F)c3)c2c1	-2.49
O=C(NCC1CC(=O)N(C2CC2)C1)c1ccc(-c2ccccc2Cl)o1 (stereo not drawn)	0.28
O=C1Cc2cc(S(=O)(=O)N3CCN(c4ccccc4)CC3)ccc2N1	-2.11
CN1C(c2ccccc2Cl)C(C(=O)NCCO)C[C@@]1(C)C(=O)O (stereo partly drawn)	-1.34
CCN1CCN(c2oc(/C=C/c3cc(OC)c(OC)c(OC)c3)nc2C#N)CC1	0.17
COc1cc(-c2nc3ncccn3c2Nc2ccc(C)cc2C)ccc1O	-0.39
COc1ccc(Cc2nc3c4cnn(-c5ccccc5F)c4ncn3n2)cc1	-0.35

7 entries picked at random from the list so far, as already listed:
canonical_smiles	Bm FixLJ act
CCn1ccc(CN(Cc2ccccc2)C2CCS(=O)(=O)C2)n1 (stereo not drawn)	-0.54
CCc1cccc(NC(=O)C(CC(C)C)NS(=O)(=O)c2ccc3c(c2)oc(=O)n3C)c1 (stereo not drawn)	0.64
COCC(c1ccccn1)N(C)C(=O)c1c[nH]c(=O)c2ccccc12 (stereo not drawn)	0.45
O=C(O)C(c1cccc(-c2ccccc2)c1)N1CCOC2(CCNCC2)C1 (stereo not drawn)	-0.23
CN1C(c2ccccc2Cl)C(C(=O)NCCO)C[C@@]1(C)C(=O)O (stereo partly drawn)	-1.34
COC(=O)c1cccc(Cn2nnc3sc4c(c3c2=O)CCC(C(C)(C)C)C4)c1 (stereo not drawn)	-1.1
CC(C)c1ccc2occ(CC(=O)Nc3cccc(C(F)(F)F)c3)c2c1	-2.49

Given with each value named: part of the list above
> COCC(c1ccccn1)N(C)C(=O)c1c[nH]c(=O)c2ccccc12 (stereo not drawn)
- Bm FixLJ act = 0.45
> Cc1ccc(-c2nc3cc(C(C)C)ccc3o2)cc1NC(=O)c1cccs1
- Bm FixLJ act = -0.13
